eIF4H FP inh: human eIF4H binding inhibitors, primary screen, translation initiation inhibitor project, biochemical, uHTS, fluorescence polarization | eIF4H fluorescence polarization binding assay | inhibition, % at 35 µM | actives 0.94% (n = 290,000) | AID 2012, 2009;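 active = 50% or more with normal probe brightness, or confirmed in later tests; inconclusive = above 50% with abnormal brightness, or retests that disagree; inactive = below 50% or failed in later tests; about a fifth of its hits are not listed in these tables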;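 note: calls also rest on retests at 20 µM and on dose response follow-up; 0% = protein and probe with vehicle and 100% = probe without protein; strong numbers were not always called active; many hits fall short of the cut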
CSC inhib: cancer stem cell viability inhibitors, primary screen, luminescence | actives 1.1% (n = 300,000) | cancer stem cell-like cells viability | AID 2717, 2010 | inhibition, % at 7.5 µM;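 active = mean at 75% or more and at least half the replicates too; inconclusive = mean and replicates disagree; tested in HMLE shEcad cells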;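 note: 0% = median of negative and 100% = median of positive control wells; the first replicate is given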
MT1-MMP act inh: blockers of MT1-MMP proenzyme processing, primary screen, HT1080 RFP-PRO-GFP cells, GFP/RFP fluorescence; AID 651647, 2012; GFP/RFP ratio change, % at 20 µM; actives 0.061% (n = 360,000); GFP/RFP ratio fluorescence, overnight; percent of plate control window, DMSO zero;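 active = GFP/RFP ratio change of at least 30% with cell ATP level not reduced by more than half and red fluorescence within 50% of control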; note: strong numbers were not always called active
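system = RFP-PRO-GFP reporter HT1080 cells | dosing = 20 µM single dose, 1% DMSO | timing = overnight cell settling, then overnight compound exposure, 37 °C, 5% CO2 | read-out basis = GFP/RFP fluorescence ratio | controls = DMSO and RFP-L50D-GFP cell wells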
PABP polyA inh: PABP poly(A) RNA binding inhibitors, primary screen, biochemical, fluorescence polarization, uHTS | inhibition, % at 35 µM | actives 1% (n = 290,000);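 active = 50% or more with normal probe brightness, or confirmed in later tests; inconclusive = above 50% with abnormal brightness, or retests that disagree; inactive = below 50% or failed in later tests; about a fifth of its hits are not listed in these tables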;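 note: calls also rest on retests at 20 µM and on dose response follow-up; controls were probe without protein and protein plus probe with vehicle; some compounds called inactive have numbers as strong as hits; many hits fall short of the cut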
Target sequence (P11940 whole entry, looked up): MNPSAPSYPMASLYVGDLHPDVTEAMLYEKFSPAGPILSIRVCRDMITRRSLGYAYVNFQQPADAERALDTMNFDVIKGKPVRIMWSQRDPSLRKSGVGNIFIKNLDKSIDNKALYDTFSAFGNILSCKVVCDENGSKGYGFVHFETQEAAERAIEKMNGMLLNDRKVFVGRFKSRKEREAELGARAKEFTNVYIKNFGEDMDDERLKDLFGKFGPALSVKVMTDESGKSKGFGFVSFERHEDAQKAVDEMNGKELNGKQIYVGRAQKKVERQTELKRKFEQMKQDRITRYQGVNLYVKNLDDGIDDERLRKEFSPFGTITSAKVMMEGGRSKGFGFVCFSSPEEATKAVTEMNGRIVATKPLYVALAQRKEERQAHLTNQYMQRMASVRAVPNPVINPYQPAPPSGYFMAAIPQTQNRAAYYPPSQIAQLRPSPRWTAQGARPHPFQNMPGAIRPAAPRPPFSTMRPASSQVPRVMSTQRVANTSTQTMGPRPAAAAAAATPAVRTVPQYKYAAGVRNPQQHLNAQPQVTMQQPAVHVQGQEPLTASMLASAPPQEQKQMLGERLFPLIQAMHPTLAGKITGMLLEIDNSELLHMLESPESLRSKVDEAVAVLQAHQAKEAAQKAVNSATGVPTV
HIV Env fusion: inhibitors of HIV-1 Env-driven cell-cell fusion, primary screen, HeLa-JRFL effector, CEM21 target cells, luciferase | inhibition, % at 12.3 µM | actives 1.1% (n = 360,000);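 active = mean replicate inhibition score of at least 50 and every replicate individually at or above 50; inconclusive = only one of the two criteria met; inactive = mean below 50 and not all replicates reaching 50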;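 note: 0% = plate neutral controls and 100% = maraviroc near 300 nM; one replicate is shown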
Rce1 inhib: yeast Rce1p protease inhibitors, primary screen, biochemical, fluorescence, cell-free homogeneous; calls only; AID 2563, 2010; CAAX prenyl protease 2 (Saccharomyces cerevisiae (strain ATCC 204508 / S288c)), Q03530; actives 0.27% (n = 290,000); yeast membranes, quenched prenylated peptide cleavage fluorescence;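 active = fall in fluorescence gain of 50% or more versus controls, with final raw signal at or below 3038400; inconclusive = same 50% fall but final raw signal above 3038400; inactive = fall in fluorescence gain under 50%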;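 note: plate controls were neutral control wells for no effect and wells lacking membranes for full effect; tested at 10 µM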
Target sequence (Q03530 whole entry, looked up): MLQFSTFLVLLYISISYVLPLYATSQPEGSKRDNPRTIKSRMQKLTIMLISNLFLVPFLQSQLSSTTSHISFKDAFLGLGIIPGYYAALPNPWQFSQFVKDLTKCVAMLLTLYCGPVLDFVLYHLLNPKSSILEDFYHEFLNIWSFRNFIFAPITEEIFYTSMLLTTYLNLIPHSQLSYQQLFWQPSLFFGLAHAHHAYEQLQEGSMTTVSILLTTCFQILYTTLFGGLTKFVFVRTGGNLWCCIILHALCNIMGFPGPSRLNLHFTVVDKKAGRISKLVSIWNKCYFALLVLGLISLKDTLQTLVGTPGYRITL
UUG fidelity: modulators of yeast start codon fidelity, primary screen, whole organism, S. cerevisiae, single point, plate reader. S. cerevisiae UUG-firefly luciferase reporter, luminescence/redox ratio. activity score, % at 18.7 µM. actives 0.13% (n = 350,000);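 active = replicate mean at a twofold rise or more, about +100% in these data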;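 note: firefly luciferase made from a UUG start codon reports start codon fidelity; reporter light over untreated wells divided by growth signal over untreated wells; some hits fall short of that in this replicate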
eIF4H FP inh retest: second read-out of eIF4H FP inh, no call of its own (marks repeat the call); inhibition, %; compound at 20 µM; confirmation average;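 mean of two retest wells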
PABP polyA inh retest: second read-out of PABP polyA inh, no call of its own (marks repeat the call); inhibition, %; compound at 20 µM; confirmation repeats;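 mean of two retest wells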
MT1-MMP act inh RFP: second read-out of MT1-MMP act inh, no call of its own (marks repeat the call); RFP signal change, %; measured here: RFP expression control read;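 0 = vehicle wells; hits needed this value within 50% of zero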
* hit, by the source's call; i = inactive; ? = inconclusive; . = no result given; & = joins results of further samples.

SMILES	eIF4H FP inh	CSC inhib	MT1-MMP act inh	MT1-MMP act inh RFP	PABP polyA inh	HIV Env fusion	Rce1 inhib	UUG fidelity	others
Cc1cccc(-n2ncc3c2CCCC3NC(=O)c2ccncc2)c1C (configuration not stated)	.	.	10.1	-27.3	.	60.8*	.	7.4
COc1ccc(-c2cn3c(C)c(C(=O)NCc4ccc5c(c4)OCO5)sc3n2)cc1	.	3.6	7.4	-0.2	.	-5.4	i	8.0
O=C(O)CC/C(=C\c1cc2c(cc1Br)OCO2)c1nc2ccccc2s1	2.7	-4.3	0.7	3.6	6.7	-9.9	.	21.8
Cc1ccc(CN(N=Nc2nonc2N)c2nonc2N)c(C)c1	.	36.1	7.1	1.3	.	21.1	i	-4.4
O=C(CCN1C(=O)/C(=C/c2ccccc2Cl)SC1=S)NCCc1ccc(O)cc1	-3.8	45.8	4.5	2.8	-5.4	8.5	i	-14.0
S=C(NCc1ccc(Cl)cc1)Nc1ccc(Cl)cc1Cl	-8.6	0.9	3.7	0.9	-12.1	21.7	i	.
CC(C)COC(=O)N(C)C[C@H]1OCc2cnnn2CCCC(=O)N([C@@H](C)CO)C[C@H]1C	.	.	-2.4	0.1	.	5.3	.	-8.5&2.1
Cc1cc(C(=O)NNC(=S)Nc2ccccc2)nn1C	2.4	-9.4	0.9	-1.1	0.3	19.8	i	.
O=C(CSCC(=O)OCC(=O)c1ccc(Br)cc1)Nc1cccc2ccccc12	10.3	9.1	-3.4	2.1	0.1	?	i	4.1
CC1CCCN(Cc2nc3c(c(=O)n(C)c(=O)n3C)n2Cc2c(F)cccc2Cl)C1 (configuration not stated)	-4.3	68.2	-3.2	-4.9	-0.9	21.7	i	8.9
Cc1ccccc1C1CC(c2ccc(Br)cc2)Nc2nc(N)nn21 (configuration not stated)	-0.3	.	2.1	2.2	-12.4	-23.5	i	-21.9
CCC(=O)N1CCc2cc(S(=O)(=O)N3CCN(c4ccccc4)CC3)ccc21	-10.2	1.0	-2.5	-1.1	4.8	-3.5	i	-22.2
CNC(=S)N/N=C/c1ccc(-c2ccc(Cl)c([N+](=O)[O-])c2)o1	-4.0	-1.5	5.7	-3.2	-1.4	6.8	i	.
COc1ccc(OC)c(NC(=S)N2c3ccccc3CC2C)c1 (configuration not stated)	-2.1	-10.3	2.6	3.1	4.6	15.9	i	-24.4
CC1CCCN(C(=S)Nc2ccc(Nc3ccccc3)cc2)C1 (configuration not stated)	-3.3	14.0	7.4	-5.2	-4.8	-27.0	i	.
COc1ccc(C(=O)COc2ccc3c(C)cc(=O)oc3c2)cc1	-9.4	-2.8	-0.7	-2.2	-1.8	-122.8	i	-8.8
CC1CCCCN1C(=O)CSCC(=O)Nc1nc(-c2cccs2)cs1 (configuration not stated)	1.9	-2.5	-1.7	2.2	11.3	-35.4	i	11.9
COC(=O)c1ccc(CNCC(=O)Nc2ccc(C(=O)OC)cc2)cc1	-6.2	-15.2	3.0	0.0	1.0	-9.3	i	.
Cc1cc(C)cc(OCC(=O)Nc2nonc2NC(=O)COc2cc(C)cc(C)c2)c1	13.9	6.5	0.3	3.4	8.4	5.1	i	0.7
O=C(OCc1ccccc1F)c1cc(S(=O)(=O)N2CCCCC2)ccc1N1CCOCC1	.	.	-4.0	-9.3	.	-9.6	.	0.9
Cc1ccc(C(=O)NC2CC3CCCC(C2)N3C(=O)NC2CCCCC2)cc1 (configuration not stated)	-1.8	.	.	.	81.4	.	i	.	eIF4H FP inh retest=-2.6;PABP polyA inh retest=-2.0
Cc1nn(-c2ccccc2)c(-c2ccccc2)c1C(=O)O	-8.7	-1.4	1.1	4.6	-16.4	.	i	-17.2
O=C(COC(=O)c1nc(Cl)ccc1Cl)Nc1ccc(Cl)cc1	.	.	2.9	4.2	.	6.1	.	-5.6
Cc1cccc(CSc2nc3c(c(-c4cccs4)c2C#N)CN(C)CC3)c1	28.3	-1.6	-10.7	-0.1	-1.7	8.4	i	.
COc1ccc(CCN2CC(C(=O)NCCc3ccc(C)cc3)CC2=O)cc1OC (configuration not stated)	4.5	-9.0	0.4	-2.6	-8.5	8.1	i	-3.1
CCCCN(C)C(=O)CS(=O)(=O)Cc1nc(-c2cccc(OC)c2)oc1C	-14.1	.	-1.3	0.6	-16.7	5.7	i	-7.4
Cn1c(=O)c2cc(NC(=S)NC3CCCCC3)ccc2n1C/C=C/c1ccccc1	.	.	5.0	-1.7	.	19.7	.	-29.1
O=C(COc1ccccc1)NCC1(N2CCCCC2)CCCCC1	-5.6	5.1	0.7	4.5	8.2	-7.7	i	.
C[N+]1(C)CCC(=C2c3ccccc3CC(=O)c3sccc32)CC1	-1.9	1.0	6.2	9.0	8.1	63.8*	i	-14.8
CC1(C)CN(c2ccc(C(=O)c3ccccc3)cc2)C1=O	2.3	-6.6	-4.1	1.8	?	2.0	i	.
O=C(NN1C(=O)C2C3C=CC([C@@H]2C1=O)C31CC1)c1ccccc1 (some centres not stated)	-6.1	-5.2	-1.0	3.8	4.8	7.7	i	.
CCc1ccc(N2CC(C(=O)Nc3cc(C)on3)CC2=O)cc1 (configuration not stated)	-4.1	-8.1	-3.3	3.8	0.9	3.3	i	2.2
CCOC(=O)c1cc(S(=O)(=O)N2CCN(C3CCCCC3)CC2)cn1C	-1.1	-10.3	2.9	-3.2	4.0	-2.0	i	-9.4
COc1cc(NCc2ccccc2)c2ncn(Cc3ccccc3)c2c1	.	25.9	2.6	-1.1	.	.	.	-14.0
CN(C)C(CNC(=O)c1ccc2nc[nH]c2c1)c1ccccc1 (configuration not stated)	1.3	-13.6	-1.0	4.1	-7.0	0.6	i	-7.0
CSc1ccccc1NC(=O)c1c(Br)cnn1C	1.7	1.2	-0.4	5.7	4.8	.	i	-18.0
O=C(c1ccc2c(=O)n(Cc3ccc(Cl)cc3)c(=S)[nH]c2c1)N1CCOCC1	-6.3	22.7	2.1	-3.2	-3.5	18.4	i	-15.4
Cn1cc(CC(=O)Nc2cccc(C#N)c2)c2ccccc21	-8.8	-4.7	1.9	-0.6	0.9	.	i	-7.0
CCOc1ccccc1N(C(C)=O)S(=O)(=O)c1ccc(Cl)cc1	1.9	-3.2	0.9	9.9	3.0	13.8	i	.
CC(C)C[C@H](NC(=O)[C@@H]1Cc2ccccc2CN1C(=O)OC(C)(C)C)C(=O)NCC1CCC(C(=O)O)CC1 (some centres not stated)	-3.6	-11.6	1.4	1.1	6.5	-25.6	i	-1.2
COc1ccc(NS(=O)(=O)c2cn(C)cn2)cc1OC	3.3	-4.7	0.5	3.8	-5.1	0.0	i	-3.1
COc1ccc(C=O)cc1OC1C=CCCC1 (configuration not stated)	-7.5	1.6	-2.1	0.9	2.2	-3.0	i	.
CCN(CC)CCN(C(=O)c1ccc([N+](=O)[O-])cc1)c1nc2ccc(OC)cc2s1	-10.4	-18.9	2.7	4.1	-10.9	-8.7	i	.
CC(=O)N=C1SC2CS(=O)(=O)CC2N1c1cccc(Cl)c1Cl (configuration not stated)	-12.1	-2.3	3.9	5.6	-3.0	.	i	-19.4
Cc1ccc(-n2cnnn2)c2cccnc12	-0.9	-10.4	4.1	-0.9	-0.7	.	i	-12.9
C#CCn1c(=NC(=O)c2ccco2)sc2cccc(Cl)c21	4.9	-11.5	-3.2	-0.4	3.9	-134.8	i	.
COCCCn1c(SCC(=O)NC(C)C)nnc1-c1ccccc1	-4.4	-3.1	-2.3	1.4	0.1	.	.	-20.3
CC(=O)OCc1nc2sc(C)c(C)c2c(=O)[nH]1	-2.2	-7.5	5.4	3.1	-2.9	.	i	-13.0
O=C(N/N=C/c1ccc(F)cc1)c1cc(-c2ccccn2)nc2ccccc12	.	.	-2.5	0.9	.	-91.4	.	-15.9
COc1ccc(Cl)cc1NC(=O)CN(C)CC(=O)Nc1ccccc1C(F)(F)F	-5.8	-1.5	0.2	-3.2	-10.7	0.2	i	11.2

Next part; the last 2 above are carried over.
SMILES	eIF4H FP inh	CSC inhib	MT1-MMP act inh	MT1-MMP act inh RFP	PABP polyA inh	HIV Env fusion	Rce1 inhib	UUG fidelity	others
O=C(N/N=C/c1ccc(F)cc1)c1cc(-c2ccccn2)nc2ccccc12	.	.	-2.5	0.9	.	-91.4	.	-15.9
COc1ccc(Cl)cc1NC(=O)CN(C)CC(=O)Nc1ccccc1C(F)(F)F	-5.8	-1.5	0.2	-3.2	-10.7	0.2	i	11.2
Cc1cccc(-n2c(=O)cc(N3CCN(c4ccc(F)cc4)CC3)[nH]c2=O)c1	5.6	2.9	-0.2	2.3	-8.1	6.6	i	6.0
COCCn1nnnc1CN1CCSCC1	-5.0	-10.2	2.4	6.1	10.9	15.2	i	-12.6
CCN(c1ccccc1)S(=O)(=O)c1ccc(N)c(OC)c1	-4.6	35.3	-4.5	-9.2	12.0	-350.5	i	-11.7
COc1ccc2c(c1)CCc1c(C(=O)NCc3ccc(F)cc3)noc1-2	2.7	-8.9	3.1	5.1	-6.0	0.2	i	-12.8
COc1ccccc1CNC(=O)COC(=O)Cn1cnc2c1c(=O)n(C)c(=O)n2C	.	.	-1.1	1.4	.	-6.6	.	-4.9
CCCCCCCCSC1=CC(=O)C(OC)=C(OC)C1=O	.	.	-20.7	-17.0	.	-10.1	.	-21.3
O=c1[nH]c(/C=C/c2ccc3c(c2)OCO3)c([N+](=O)[O-])c(=O)[nH]1	-0.6	0.8	.	.	13.3	.	i	.
CCc1ccc(NC(=O)C2CCN(S(=O)(=O)c3c(C)noc3C)CC2)cc1	-18.9	-16.7	2.6	-6.4	-5.1	0.0	i	9.4
CCN(Cc1ccccc1)S(=O)(=O)c1ccc(OC)c2ncccc12	11.0	-6.7	0.8	1.7	2.0	0.9	i	-2.0
Cc1ccc(NS(=O)(=O)c2ccc(-n3cccn3)cc2)nc1	-3.3	2.4	0.6	1.4	5.8	-13.0	i	-0.2
CCOC(=O)[C@@H]1[C@H]2COc3ccc(Br)cc3[C@H]2N2C(=O)N(c3ccc(C)cc3)C(=O)[C@@]12C	.	-5.8	-1.2	-4.3	.	-52.6	.	-16.3
Cc1c(O)c(CN(C)C)cc2c1oc(=O)c1ccccc12	0.8	19.2	-0.5	0.6	3.8	29.5	i	-14.7
O=C(Cn1cc2c(n1)CCCC2)NCc1cccc(Cl)c1	-11.9	4.5	7.7	3.4	1.2	16.7	i	0.3
COc1cccc(NC(=O)CNC(=O)c2ccc(F)cc2)c1	-12.5	.	3.1	5.0	3.5	.	i	.
CC(C)(C)c1ccc(OCCSc2nc3ccccc3n2CC(=O)O)cc1	-5.4	1.7	5.3	3.2	-2.7	9.6	i	-28.3
O=C(c1cccc(Cl)c1)N1CCN(Cc2c[nH]c3ccccc23)CC1	1.6	2.0	-2.3	2.1	15.2	17.9	i	.
CCNC(=O)CSc1nnc(-c2ccc(OC)cc2)n1CC(C)C	-7.4	4.6	9.9	0.0	-3.7	8.7	i	-5.7

Screens (PubChem BioAssay)
